# Integrin act MD: activates integrin-mediated alleviation for muscular dystrophy. alpha7betagal myoblasts, beta-gal FDG fluorescence, 48 h. Potency, µM (doses to about 38.3 µM), for the others: top-dose activation, usual class: activators. 350,000 compounds, 0.064% hits;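 also: potency is read from the fitted curve at half-maximal effect; 100% = response of the positive control SU9516; nearly all actives have a fitted effect of over 60% in size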
#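 Alpha7betagal+/- myoblasts (passage 13) were plated 16-24 hr, then exposed to compounds (1:260 dilution of DMSO stock) for 48 hours at 37C. After MPER lysis, β-galactosidase reporter activity was read as FDG fluorescence (ex 480/em 540) after 30 minutes.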
# PTAP TSG101 blk: blocks PTAP/TSG101 interaction to inhibit HIV-1 budding | Q99816 | Fluorescence polarization, FITC-PTAP peptide / Tsg101 binding | Potency, µM (top dose mostly 115 µM), without a hit: top-dose activity change, negative = inhibition, actives largely listed as inhibitors | 340,000 tested, under 10 active | AID 493005; active = well fitted inhibition curve with a large enough effect in the main read-out, with a control signal flat, not every such curve was filed as active; inconclusive = small, poorly fitted or top-dose-only effect, or effect the other way, or a change in a side signal; inactive = no such curve, though single readings can be large or run the other way; also: potency is read from the fitted curve at half-maximal effect; % of control where 0% means no effect
# Target sequence (Q99816 whole entry, looked up): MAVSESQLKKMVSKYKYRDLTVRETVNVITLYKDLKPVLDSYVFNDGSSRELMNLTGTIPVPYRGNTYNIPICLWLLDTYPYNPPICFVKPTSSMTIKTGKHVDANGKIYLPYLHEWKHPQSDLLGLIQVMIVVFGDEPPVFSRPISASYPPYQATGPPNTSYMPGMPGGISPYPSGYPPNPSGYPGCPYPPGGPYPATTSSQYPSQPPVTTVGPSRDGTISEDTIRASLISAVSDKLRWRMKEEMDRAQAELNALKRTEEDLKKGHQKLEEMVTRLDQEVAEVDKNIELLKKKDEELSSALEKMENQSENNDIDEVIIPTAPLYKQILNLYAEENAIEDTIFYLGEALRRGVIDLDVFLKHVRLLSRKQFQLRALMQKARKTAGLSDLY
#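 FP read-out: FITC-PTAP peptide, 50 nM final, binding Tsg101 binding domain, 10 uM final; 20 min, r.t.; 10 mM HEPES pH 7.5, 0.15 M NaCl, 0.01% Tween 20, 3 mM EDTA, 0.1 mM TCEP.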
# BRCA1 expr act: increases BRCA1 expression. MCF7-BRCA1-FFLuc reporter, luminescence, 48 h; response scale: scaled: vehicle 0%, 10 µM genistein 100%. Potency, µM (series often up to 46.1 µM), without a hit: at the top dose activation, hits mostly activators. 380,000 compounds, 1.1% hits. AID 624202; also: potency is read from the fitted curve at half-maximal effect; nearly all actives have a fitted effect of over 80% in size; some results filed as inactive show a strong effect at the top dose
#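 Compounds are tested at multiple concentrations on MCF7 BRCA1-luciferase reporter cells seeded at 2000 per well; after 48 h, a single luminescence end-point is taken and curves fitted to the normalized data.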
# AT treatment: candidate therapy for ataxia-telangiectasia. […] A-T fibroblasts, KAP-1 phosphorylation AlphaLISA; neocarzinostatin DNA damage 30 min before lysis. Potency, µM (top dose mostly 57.5 µM), without a hit: at the highest dose activation, hits mostly activators. 320,000 compounds, 0.19% hits. AID 485349; also: potency is read from the fitted curve at half-maximal effect; % of control where 0% means no effect; nearly all actives have a fitted effect of over 45% in size
#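 ATM-like activity read as KAP-1 phosphorylation via AlphaLISA donor/acceptor antibody pairs after lysis and 6 hr at 25C. Cells were ATM-null patient fibroblasts ([…], hTERT), dosed 60 min, then exposed to the DSB inducer NCS for 30 min.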
# CXXC DNA block: MLL CXXC-DNA interaction inhibition; MLL-CXXC / FITC-HOXA9 DNA fluorescence polarization; Potency, µM (titrated, usually from 115 µM), for the others: at the highest dose activity change, negative = inhibition, most hits filed as inhibitors; 290,000 compounds, 0.037% hits; AID 2662; Q03164; active = well fitted inhibition curve with a large enough effect in the polarisation, with a control signal flat, not every such curve was filed as active; inconclusive = small, poorly fitted or top-dose-only effect, or effect the other way, or a change in a side signal; inactive = no such curve, though single readings can be large or run the other way; the % refers to the polarisation; also: potency is read from the fitted curve at half-maximal effect
#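 Fluorescence polarization: 7 uM MLL-CXXC (stock) preincubated 5 min with compounds, then 50 nM fluorescein-HOX-A9 DNA (stock) added; 30 min ambient. Buffer 50 mM Tris-HCl pH 7.5, 50 mM NaCl, 1 mM DTT, 0.05% BSA.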
# TCR act: activates T cell receptor signaling; primary human leukocytes, anti-CD3, IL-2 HTRF, 48 h; Potency, µM (doses to about 9.22 µM), for the others: at the top dose activation of IL-2 secretion, most hits filed as activators; 330,000 tested, under 10 active; also: % of control where 0% means no effect
#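 Using a-CD3 beads without co-stimulation, primary human leukocytes were exposed to compounds for 48 hr. An HTRF IL-2 kit measured the cytokine, with europium-to-d2 energy transfer producing emission at 665nm upon 320nm excitation.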
# * = called active by the depositor; ? = inconclusive; / = no result given; & = joins results of further samples; [ ] = another dose, or the depositor's remark. Unless noted, calls follow the shape of the dose curve; as a rule, active = well fitted curve in the direction sought with a large enough effect; inconclusive = small, poorly fitted or top-dose-only effect, or another doubt; inactive = no such curve, though single readings can be large; an effect the other way counts as inactive or inconclusive. This is a subset; rates above refer to the full screens.
1) NCCCC(N)(C(=O)O)C(F)F (stereo not given)
2) O=C1CN(/N=C/c2ccc([N+](=O)[O-])o2)C(=O)N1
3) Cc1cnc(C(=O)NCCc2ccc(S(=O)(=O)NC(=O)NC3CCCCC3)cc2)cn1
4) COc1cc(/C=C/C(=O)/C=C(O)/C=C/c2ccc(O)c(OC)c2)ccc1O
5) O=C(c1ccc(OCCN2CCCCC2)cc1)c1c(-c2ccc(O)cc2)sc2cc(O)ccc12
6) Cc1cc(/C=C\c2ccc3cc(N(C)C)ccc3[n+]2C)c(C)n1-c1ccccc1
7) C[C@]12C[C@H](O)[C@H]3[C@@H](CCC4=CC(=O)CC[C@@]43C)[C@@H]1CC[C@@H]2C(=O)CO
8) CC(C)NC[C@@H](O)c1ccc(O)c(O)c1

Screen / compound no. | 1 | 2 | 3 | 4 | 5 | 6 | 7 | 8
Integrin act MD | / | / | / | -16% | / | / | / | /
PTAP TSG101 blk | 2% | -1% | 1% | ? | 1%&-2% | 1% | -2% | -2%
BRCA1 expr act | 14% | -27% | -38% | -40% | ? | -76% | 0% | 1%
AT treatment | 7% | -11% | 10% | 8% | -5% | -10% | 10% | -3%
CXXC DNA block | 7%&12% | 1%&-22% | 7%&12% | 77%[activator] | ? | / | 5%&-4% | 3%
TCR act | -4% | -5% | -15% | -4% | -8%&-16% | 4% | -1% | -13%

# Random excerpt: 4 compounds from above.
5) O=C(c1ccc(OCCN2CCCCC2)cc1)c1c(-c2ccc(O)cc2)sc2cc(O)ccc12
6) Cc1cc(/C=C\c2ccc3cc(N(C)C)ccc3[n+]2C)c(C)n1-c1ccccc1
1) NCCCC(N)(C(=O)O)C(F)F (stereo not given)
2) O=C1CN(/N=C/c2ccc([N+](=O)[O-])o2)C(=O)N1

Screen / compound no. | 5 | 6 | 1 | 2
Integrin act MD | / | / | / | /
PTAP TSG101 blk | 1%&-2% | 1% | 2% | -1%
BRCA1 expr act | ? | -76% | 14% | -27%
AT treatment | -5% | -10% | 7% | -11%
CXXC DNA block | ? | / | 7%&12% | 1%&-22%
TCR act | -8%&-16% | 4% | -4% | -5%

# (list continues)
9) O=C(O)[C@H](O)[C@@H](O)C(=O)O
10) NCCS
11) C[C@]12C[C@H](O)C3[C@@H](CCC4=CC(=O)CC[C@@]43C)[C@@H]1CC[C@@H]2C(=O)CO (stereo not given in full)
12) O=C1c2ccccc2C(=O)C2OC12 (stereo not given)
13) Cc1cc(C)c2[nH]c(=O)c(CN(CC3CCCO3)C(=S)NCc3ccco3)cc2c1 (stereo not given)
14) O=C(O)COCCN1CCN([C@@H](c2ccccc2)c2ccc(Cl)cc2)CC1
15) CCCCC[C@H](O)/C=C/[C@@H]1[C@@H](C/C=C\CCCC(=O)O)[C@@H](O)C[C@H]1O
16) CC(C)NC[C@H](O)COc1cccc2[nH]ccc12

Screen / compound no. | 9 | 10 | 11 | 12 | 13 | 14 | 15 | 16
Integrin act MD | 11% | / | / | / | -21% | / | / | /
PTAP TSG101 blk | 0% | 1% | / | / | 3% | / | 0% | -3%
BRCA1 expr act | 9% | 3% | / | / | -17% | / | -19% | 0%
AT treatment | -11% | -2% | / | 16% | 2% | / | / | -3%
CXXC DNA block | / | -2%&0% | 3% | ? | 5% | -2%[51.4 µM] | 8%&-3% | -6%&5%
TCR act | -4% | -2% | / | / | -3%[46.1 µM] | / | 3% | -1%

17) COc1ccc2cc(C(C)C(=O)O)ccc2c1 (stereo not given)
18) O=C(O)CCC(=O)C(=O)O
19) O=c1[nH]c(=O)n(C2C[C@H](O)[C@@H](CO)O2)cc1C(F)(F)F (stereo not given in full)
20) C#C[C@]1(O)CC[C@H]2[C@@H]3CCC4=C(CCC(=O)C4)[C@H]3CC[C@@]21C
21) O=C(NCC1CCCCN1)c1cc(OCC(F)(F)F)ccc1OCC(F)(F)F (stereo not given)
22) CCCNCC(O)COc1ccccc1C(=O)CCc1ccccc1 (stereo not given)
23) O=C(O)c1ccccc1O
24) CC(C)NCC(O)COc1ccc(CC(N)=O)cc1 (stereo not given)

Screen / compound no. | 17 | 18 | 19 | 20 | 21 | 22 | 23 | 24
Integrin act MD | / | / | / | / | / | / | / | /
PTAP TSG101 blk | 2% | / | 1% | -2% | 2% | 0% | -1% | -2%
BRCA1 expr act | 0% | / | -31% | -24% | ? | -7% | 0% | -14%
AT treatment | 16% | / | -8% | 3% | 19% | 4% | -13% | 6%
CXXC DNA block | / | 0% | 0% | 18% | 0%&4% | 4%&5% | 4%&2% | 3%&-5%
TCR act | 13% | / | -4% | 13% | -7% | 56% | -2% | 5%

# Excerpt: entries 22 to 24
22) CCCNCC(O)COc1ccccc1C(=O)CCc1ccccc1 (stereo not given)
23) O=C(O)c1ccccc1O
24) CC(C)NCC(O)COc1ccc(CC(N)=O)cc1 (stereo not given)

Screen / compound no. | 22 | 23 | 24
Integrin act MD | / | / | /
PTAP TSG101 blk | 0% | -1% | -2%
BRCA1 expr act | -7% | 0% | -14%
AT treatment | 4% | -13% | 6%
CXXC DNA block | 4%&5% | 4%&2% | 3%&-5%
TCR act | 56% | -2% | 5%

# Look-ups from the list.
# TCR act result of no. 17 stands at 13%
# TCR act result of no. 20 stands at 13%
# AT treatment result of no. 24 stands at 6%
# AT treatment result of no. 21 stands at 19%
# CXXC DNA block result of no. 18 stands at 0%
# AT treatment result of no. 22 stands at 4%
# CXXC DNA block result of no. 23 stands at 4%&2%

# Remaining list, next part:
25) C[C@]12C=CC(=O)C=C1CC[C@@H]1[C@@H]2[C@@H](O)C[C@@]2(C)[C@H]1CC[C@]2(O)C(=O)CO
26) Nc1ccn([C@H]2CS[C@@H](CO)O2)c(=O)n1
27) CC1CC2C3CCC4=CC(=O)C=CC4(C)C3(F)C(O)CC2(C)C1(O)C(=O)CO (stereo not given)
28) CN(C)C(=O)C(CCN1CCC(O)(c2ccc(Cl)cc2)CC1)(c1ccccc1)c1ccccc1
29) CC(=O)CC(c1ccccc1)c1c(O)c2ccccc2oc1=O (stereo not given)
30) C#C[C@]1(O)CCC2C3CCC4=CC(=O)CC[C@@H]4C3CC[C@@]21C (stereo not given in full)
31) CC(C)[N+]1(C)[C@@H]2CC[C@H]1CC(OC(=O)C(CO)c1ccccc1)C2 (stereo not given in full)
32) CC(C)n1c(/C=C/[C@@H](O)C[C@@H](O)CC(=O)O)c(-c2ccc(F)cc2)c2ccccc21

Screen / compound no. | 25 | 26 | 27 | 28 | 29 | 30 | 31 | 32
Integrin act MD | / | / | 10% | / | / | / | / | /
PTAP TSG101 blk | -9% | 0% | -5% | 1% | 1%&-4%&-10% | 0% | 1%&0%&-2% | -3%
BRCA1 expr act | 0% | 5% | -11% | -24% | -21%&11%&8% | -33% | -18%&6%&-22% | -35%
AT treatment | -2% | 2% | 18% | -4% | -8%&15%&-9% | -11% | 4%&-4%&0% | 4%
CXXC DNA block | -6% | / | -5% | 13%&1% | 1%&-1% | -2% | -1% | -6%
TCR act | 2% | -2% | 2% | -1% | -6%&2%&-1% | 0% | 0%&-9%&-10% | 0%

33) CNC(=O)c1c(I)c(C(=O)NCC(=O)Nc2c(I)c(C(=O)O)c(I)c(C(=O)NCCO)c2I)c(I)c(N(C)C(C)=O)c1I
34) CN1CCC[C@H]1c1cccnc1
35) S=c1nc(-c2cccc(Br)c2)[nH][nH]1
36) CN(C(=O)CN(CCO)CC(=O)N(C)C(C)(C)Cc1ccccc1)C(C)(C)Cc1ccccc1
37) COC(=O)Cc1c[nH]c2cccc(OCC(O)CN(Cc3ccccc3)C(C)C)c12 (stereo not given)
38) CC(C)NC[C@H](O)COc1ccc(CC(N)=O)cc1
39) C=CCOc1ccccc1OCC(O)CNC(C)C (stereo not given)
40) CN(C)CCN(Cc1cccs1)c1ccccn1
41) CCN1CCN(C(=O)N[C@@H](C(=O)N[C@@H]2C(=O)N3C(C(=O)O)=C(CSc4nnnn4C)CS[C@H]23)c2ccc(O)cc2)C(=O)C1=O

Screen / compound no. | 33 | 34 | 35 | 36 | 37 | 38 | 39 | 40 | 41
Integrin act MD | / | / | -2% | / | -32% | / | / | / | /
PTAP TSG101 blk | -1% | 0%&0% | -12% | -1% | -4% | 1% | -3% | -2% | 2%
BRCA1 expr act | 1% | -2%&0% | 2% | 5% | -32% | -7% | 16% | -1% | ?
AT treatment | -2% | -2%&9% | 11% | 15% | -2% | 3% | -4% | -4% | -1%
CXXC DNA block | -3% | -4% | 2% | -5%[51.4 µM] | -7% | -7%&-4%&6% | / | 3%&-4%&2% | /
TCR act | -12% | -7%&-2% | 5% | -3% | 7%[46.1 µM] | -10% | -3% | -1% | 5%

# 4 entries out of the list above, sorted by the number in TCR act, descending.
nr	Molecule	Integrin act MD	PTAP TSG101 blk	CXXC DNA block	TCR act
35	S=c1nc(-c2cccc(Br)c2)[nH][nH]1	-2%	-12%	2%	5%
39	C=CCOc1ccccc1OCC(O)CNC(C)C (stereo not given)	/	-3%	/	-3%
38	CC(C)NC[C@H](O)COc1ccc(CC(N)=O)cc1	/	1%	-7%&-4%&6%	-10%
33	CNC(=O)c1c(I)c(C(=O)NCC(=O)Nc2c(I)c(C(=O)O)c(I)c(C(=O)NCCO)c2I)c(I)c(N(C)C(C)=O)c1I	/	-1%	-3%	-12%

# Compound activity as filed in PubChem.
